Screening data (PubChem BioAssay)
GALR2 ag: agonists of human galanin receptor 2 (GALR2); GALR2-expressing cells, agonist activation read-out; activation, %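 (tested at 5 µM)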; 140,000 compounds, 0.48% hits; O43603;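 active = above mean plus 3 SD of all compounds, about 5% in these data, not always enough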;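 also: 0% = vehicle buffer wells and 100% = reference agonist at full effect; tested in CHO reporter cells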
Target sequence (O43603 whole entry, looked up): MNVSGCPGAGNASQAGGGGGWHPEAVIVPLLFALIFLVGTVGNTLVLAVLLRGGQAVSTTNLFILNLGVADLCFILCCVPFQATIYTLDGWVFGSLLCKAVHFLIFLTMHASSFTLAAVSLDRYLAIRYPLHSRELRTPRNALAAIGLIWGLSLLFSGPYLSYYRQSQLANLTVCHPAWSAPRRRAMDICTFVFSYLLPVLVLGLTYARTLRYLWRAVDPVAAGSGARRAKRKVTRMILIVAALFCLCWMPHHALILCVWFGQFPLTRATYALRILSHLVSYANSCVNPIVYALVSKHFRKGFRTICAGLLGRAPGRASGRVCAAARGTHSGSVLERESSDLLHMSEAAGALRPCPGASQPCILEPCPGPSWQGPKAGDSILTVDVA
INS promoter inh: TRM-6 insulin promoter activity inhibition | TRM-6 cells (human fetal islet line), insulin promoter-eGFP reporter, imaging; reporter expression induced with tamoxifen | inhibition, % at 2 µM | 130,000 compounds, 0.9% hits;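 active = inhibition above the mean plus 3 SD, with well images judged a real hit on visual review, cut at about 60% in these data, passing the limit was not always enough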
PKD1 inh: PKD1 (human) kinase inhibition | Q15139 | PKD1 kinase fluorescence polarization assay | inhibition, %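 (about 10 µM by stock and volumes)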 | 200,000 compounds, 0.056% hits | AID 797;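 active = inhibition of 50% or more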;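 also: controls were vehicle for no effect and a reference inhibitor for full effect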
RGS16-Gao HTS: regulators of human RGS16-Galphao interaction; binding response (% of control), % at 10 µM; 220,000 compounds, 0.38% hits; bead-based flow cytometry RGS16-Galphao binding, fluorescence; actives lie on both sides; O15492+P09471;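 active = below 25% or above 175%, edge rows of some plates excepted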;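 also: Galphao activated by GDP with aluminum fluoride before binding; 100% = wells without compound and 0% = beads without RGS; some results beyond the cut were filed as inactive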
Target sequence (O15492 whole entry, looked up): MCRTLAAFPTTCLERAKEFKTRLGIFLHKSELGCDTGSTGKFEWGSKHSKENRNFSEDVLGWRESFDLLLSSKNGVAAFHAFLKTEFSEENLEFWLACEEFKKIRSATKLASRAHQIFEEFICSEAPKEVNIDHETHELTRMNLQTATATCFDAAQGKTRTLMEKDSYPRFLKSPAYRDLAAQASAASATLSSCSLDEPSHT
Target sequence (P09471 whole entry, looked up): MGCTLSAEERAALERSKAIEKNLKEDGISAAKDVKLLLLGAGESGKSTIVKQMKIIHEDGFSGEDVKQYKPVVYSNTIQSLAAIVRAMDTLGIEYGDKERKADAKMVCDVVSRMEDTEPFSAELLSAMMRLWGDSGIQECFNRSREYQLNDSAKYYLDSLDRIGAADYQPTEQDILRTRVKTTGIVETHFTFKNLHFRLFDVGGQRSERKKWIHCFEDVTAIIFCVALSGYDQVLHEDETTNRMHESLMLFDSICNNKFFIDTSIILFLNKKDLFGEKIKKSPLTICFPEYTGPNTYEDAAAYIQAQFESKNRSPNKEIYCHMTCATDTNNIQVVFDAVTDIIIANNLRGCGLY
HSV replic up: increases HSV replication in cells | maximum fold increase | 220,000 compounds, 0.005% hits | AID 1956 | HSV replication augmentation in cells, fold increase;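 active = peak rise of 1.5-fold or more in the series; tested in PC3 cells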;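 also: first round at 10 µM; read as green reporter fluorescence; hits show the peak of a series up to 25 µM; 1 = signal of infected wells without compound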
INS promoter inh cell count: second read-out of INS promoter inh, no call of its own (marks repeat the call); normalized cell count, %; measured here: cell count, toxicity; reference of the scale not given here;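 cells exposed to compound for 48 h; stained nuclei by imaging scaled within each plate; lower means fewer cells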
HSV replic up primary fold: second read-out of HSV replic up, no call of its own (marks repeat the call); fold increase; compound at 10 µM; measured here: primary screen fold increase 10 uM; tested in PC3 cells;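 GFP signal in the first replicate; 1 = infected wells without compound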
* marks the source's active call; other numbers are inactive results; i = inactive; x = no result given.

Value order: GALR2 ag | INS promoter inh | INS promoter inh cell count | PKD1 inh | RGS16-Gao HTS | HSV replic up | HSV replic up primary fold
CC[C@H](C)[C@H](NC(N)=O)C(=O)Nc1ccc(C)cc1
  0.1 | x | x | -4.9 | 98.4 | i | 1.03
COCCCNC(=S)N1CCC(C(=O)c2ccc3c(c2)OCCO3)CC1
  x | 21.4 | 110.8 | 2.4 | 102.5 | i | 0.94
O=C(COC(=O)C1CCN(S(=O)(=O)c2cccs2)CC1)Nc1ccc(F)cc1F
  x | x | x | x | 96.1 | i | 1.08
O=C(NCc1cccnc1)C1CCCN(S(=O)(=O)c2cccc3nsnc23)C1 (centres undefined)
  -1.8 | 42.9 | 80.9 | 6.0 | 107.9 | i | 1
COc1ccccc1-n1c(-c2cn(C)nc2C)n[nH]c1=S
  -1.1 | -20.0 | 100.0 | -12.0 | 12.8* | i | 0.98
S=C(Nc1ccccn1)Nc1ccccc1Cl
  x | x | x | -1.1 | 100.3 | i | 0.92
CC(=O)c1ccc(Nc2c3c(nc4ccccc24)CCCC3)cc1
  x | x | x | x | 103.5 | i | 0.85
NC(=O)c1nn(-c2ccc(Cl)cc2Cl)c(=O)cc1O
  x | 15.4 | 100.0 | 7.0 | 100.0 | i | 1.05
COc1ccc2[nH]c3nc(SCC(=O)Nc4ccc5c(c4)OCO5)nnc3c2c1
  -1.7 | x | x | -3.2 | 69.6 | i | 0.943
CCc1c(C)nc2ncnn2c1Nc1ccc(C#N)c(Cl)c1
  0.0 | x | x | 3.9 | 97.3 | i | 0.9
CCOC(=O)C1=C(C)N=C2SC(CC)C(=O)N2C1c1cccc(F)c1 (centres undefined)
  -2.6 | -21.4 | 62.7 | -5.4 | x | i | 1.07
O=C(OCc1ccccc1)C1CCCN1C(=O)c1ccccc1[N+](=O)[O-] (centres undefined)
  -1.9 | x | x | -6.2 | 106.3 | i | 0.94
COc1cc(C(O)P(=O)(OCC(C)C)OCC(C)C)cc(OC)c1OC (centres undefined)
  -1.3 | -61.3 | 68.3 | -23.1 | 83.0 | i | 0.93
O=C(/C=C/c1ccccc1)N1c2ccccc2Sc2ccc(C(F)(F)F)cc21
  0.9 | 27.8 | 74.8 | -5.0 | 133.1 | i | 1.05
Cc1cc(C)cc(OCC(=O)Nc2ccc3c(c2)OCCO3)c1
  x | -7.1 | 117.0 | -9.6 | 100.2 | i | 0.97
COC(=O)c1ccccc1NC(=O)C/C(C)=N/NC(=O)CC#N
  x | 71.4* | 100.9* | 2.4 | 101.6 | i | 0.71
CC(=O)Nc1cccc(OCCCNC(=O)c2ccc(F)cc2)c1
  x | x | x | x | 102.8 | i | 0.89
Cc1ccc(-c2nnc(COc3cccc(-n4cnnn4)c3)o2)cc1
  0.4 | x | x | -4.7 | 118.9 | i | 0.96
O=C(Cn1ccc(=O)[nH]c1=O)NCCO
  x | 0.0 | 108.5 | -1.5 | 99.0 | i | 1.06
COc1cc(C2=NOC(C(=O)Nc3cccnc3)C2)cc(OC)c1OC (centres undefined)
  x | 16.7 | 165.7 | -4.8 | 101.1 | i | 0.93

Random excerpt: 7 records from the list, in no set order.
Value order: GALR2 ag | INS promoter inh | INS promoter inh cell count | PKD1 inh | RGS16-Gao HTS | HSV replic up | HSV replic up primary fold
CC(=O)Nc1cccc(OCCCNC(=O)c2ccc(F)cc2)c1
  x | x | x | x | 102.8 | i | 0.89
COc1cc(C(O)P(=O)(OCC(C)C)OCC(C)C)cc(OC)c1OC (centres undefined)
  -1.3 | -61.3 | 68.3 | -23.1 | 83.0 | i | 0.93
COC(=O)c1ccccc1NC(=O)C/C(C)=N/NC(=O)CC#N
  x | 71.4* | 100.9* | 2.4 | 101.6 | i | 0.71
O=C(/C=C/c1ccccc1)N1c2ccccc2Sc2ccc(C(F)(F)F)cc21
  0.9 | 27.8 | 74.8 | -5.0 | 133.1 | i | 1.05
CC[C@H](C)[C@H](NC(N)=O)C(=O)Nc1ccc(C)cc1
  0.1 | x | x | -4.9 | 98.4 | i | 1.03
Cc1ccc(-c2nnc(COc3cccc(-n4cnnn4)c3)o2)cc1
  0.4 | x | x | -4.7 | 118.9 | i | 0.96
O=C(NCc1cccnc1)C1CCCN(S(=O)(=O)c2cccc3nsnc23)C1 (centres undefined)
  -1.8 | 42.9 | 80.9 | 6.0 | 107.9 | i | 1

Continued:
Value order: GALR2 ag | INS promoter inh | INS promoter inh cell count | PKD1 inh | RGS16-Gao HTS | HSV replic up | HSV replic up primary fold
O=C(Nc1ccc(Cl)cc1C(=O)N1CCOCC1)c1cccc([N+](=O)[O-])c1
  0.4 | -6.9 | 106.5 | -4.5 | 99.0 | i | 0.9
CC(=O)C1=C(O)C(=O)N(c2ccc(S(=O)(=O)Nc3nccs3)cc2)C1c1ccc(F)cc1 (centres undefined)
  x | x | x | x | 103.5 | i | 0.98
Cc1cc(C)n2ncc(/C(N)=N/OC(=O)Nc3ccccc3)c2n1
  x | x | x | x | 100.9 | i | 0.76
COc1ccc(S(=O)(=O)NCc2ccc(C(=O)N3CCc4ccccc4C3)cc2)cc1
  -0.2 | 23.1 | 94.2 | 4.8 | 94.4 | i | 0.92
CC(=C/c1ccc(C(C)C)cc1)/C=N/NC(=O)Cn1nnnc1N
  x | x | x | x | 100.7 | i | 1.08
O=C(N=Nc1c(O)[nH]c2ccc(Br)cc12)c1cc(-c2cccc3ccccc23)n[nH]1
  -0.2 | 18.5 | 111.0 | 1.9 | 8.3* | i | 0.9
Cc1ccc(S(=O)(=O)N2CCOCC2)cc1NC(=O)CSc1cccc[n+]1[O-]
  -0.1 | x | x | -12.0 | 99.6 | i | 1.13
COc1ccc(C(=O)Nc2ccccc2C(=O)NC(Cc2ccc(O)cc2)C(=O)NNC(=O)c2ccc(C)cc2)cc1 (centres undefined)
  0.1 | x | x | -4.7 | 104.9 | i | 0.69
CCOCC(=O)Nc1nc2ccccc2s1
  -1.6 | 53.9 | 46.8 | -0.5 | 134.3 | i | 0.87
CC(C)=CC(=O)O[C@H]1[C@@H]2[C@H](C)C(=O)O[C@@H]2C[C@@H](C)[C@@H]2[C@@H](O)CC(=O)[C@]21C
  x | x | x | x | 99.8 | i | 0.81
COC(=O)/C=C1\N/C(=N\c2nc(C)cc(C)n2)N(c2ccc(C)c(C)c2)C1=O
  0.1 | 60.0 | 80.8 | -0.5 | 98.0 | i | 0.96
O=S(=O)(NC1=NCCCCC1)c1cccs1
  -1.8 | 27.3 | 140.2 | -0.2 | 95.1 | i | 1.13
O=C(COC(=O)c1ccc(CO)cc1)NCc1cccs1
  -0.7 | 6.7 | 107.5 | -6.9 | 103.9 | i | 0.92
COc1ccc(C(=O)Nc2ccccc2-c2nnn(CC(=O)Nc3ccc4c(c3)OCCO4)n2)cc1
  -2.7 | -20.8 | 105.1 | 3.5 | 105.6 | i | 0.83
CN1CCN(C(=O)c2cc3c(n(-c4ccccc4)c2=O)CC(C)(C)CC3=O)CC1
  -0.1 | x | x | -13.2 | 96.5 | i | 0.96
C=C1C(C(=O)N2CCOCC2)C1C(=O)N1CCOCC1 (centres undefined)
  -0.1 | 0.0 | 75.0 | 2.0 | 94.2 | i | 0.92
CCOCCOC(=O)NCCCCCCNC(=O)OCCOCC
  x | x | x | x | 98.3 | i | 0.97
Cc1cc(NS(=O)(=O)c2ccc(NC(=O)Nc3cccc(Cl)c3)cc2)no1
  0.8 | -14.3 | 110.9 | -7.7 | 98.9 | i | 1.05
Cc1cccc(C2c3[nH]c4ccccc4c3CCN2C(=O)c2noc3c2CCCC3)n1 (centres undefined)
  x | x | x | -5.5 | 103.9 | i | 0.81
COc1ccc(/C=C(\C#N)C(=O)Nc2cc(S(=O)(=O)N3CCCCC3)ccc2N2CCCCC2)cc1
  -0.6 | -9.7 | 117.4 | -6.0 | 104.1 | i | 1.08

Remaining list, next part:
Value order: GALR2 ag | INS promoter inh | INS promoter inh cell count | PKD1 inh | RGS16-Gao HTS | HSV replic up | HSV replic up primary fold
N#CC1=C(N)Oc2cc(O)ccc2C1C1CCCCC1 (centres undefined)
  -1.7 | x | x | -5.1 | 99.0 | i | 0.83
COc1ccccc1C(=O)NCC(=O)OC(C)C(=O)NC(=O)NC1CCCCC1 (centres undefined)
  -1.1 | 59.4 | 55.3 | 3.3 | 106.4 | i | 0.96
Cc1ccc(C(=O)NCCSCc2ccccc2)cc1[N+](=O)[O-]
  -0.8 | 6.5 | 92.4 | 3.9 | 154.6 | i | 0.92
Nc1nc(Nc2ccccc2)nc(NCc2ccccc2)c1[N+](=O)[O-]
  x | x | x | x | 103.0 | i | 0.99
CCOC(=O)c1c(C)[nH]c(C)c1C(=O)CN1C(=O)NC2(CCC(C)CC2)C1=O (centres undefined)
  -3.0 | -16.7 | 115.5 | -1.5 | 93.8 | i | 1.01
CCOC(=O)c1cc(-c2ccc(OC(F)F)cc2)nc2nc(SC)[nH]c(=O)c12
  -0.5 | x | x | 1.3 | 99.0 | i | 1.06
COc1ccc(C(=O)NCc2nnc(SCC(=O)Nc3cc(C)on3)o2)cc1OC
  x | 21.1 | 101.7 | 0.2 | 96.1 | i | 1.02
Cc1csc(CN(C)C(=O)CC2C(=O)NCCN2Cc2ccc(-c3ccccc3)cc2)n1 (centres undefined)
  x | -7.1 | 98.5 | 4.1 | 99.8 | i | 0.93
O=C(CN1CCCC1)Nc1ccc([N+](=O)[O-])cc1Cl
  x | 14.3 | 74.5 | 0.0 | 88.3 | i | 0.87
Cc1cccc2sc(NC(=O)c3cc(S(=O)(=O)N(C)C)ccc3N3CCCC3)nc12
  x | 27.8 | 56.2 | -6.3 | 101.5 | i | 0.98
COC(=O)c1ccccc1NC(=O)N1c2ccccc2CC1C (centres undefined)
  0.1 | -202.9 | 105.7 | -8.4 | 90.8 | i | 0.81
CN(C)C(=O)CN1C(=O)C2CCCCN2C(=O)c2ccccc21 (centres undefined)
  -0.1 | 6.1 | 98.1 | 4.8 | 96.7 | i | 0.88
CC1C(C#N)=C(N)OC2=C1C(=O)CC(C)(C)C2 (centres undefined)
  0.1 | x | x | -15.3 | 98.8 | i | 1.01
CCOC(=O)c1ccc(N2C(=O)c3n[nH]c(C)c3C2c2ccccc2)cc1 (centres undefined)
  -0.9 | 45.5 | 119.7 | -5.5 | 102.3 | i | 1
O=c1c2ccccc2nc(CSc2nnnn2-c2ccccc2)n1-c1cccc(C(F)(F)F)c1
  -0.9 | 35.5 | 118.1 | -3.4 | 95.1 | i | 0.93
Cc1nn(-c2nc3ccccc3[nH]2)c(N)c1-c1ccccc1
  -1.0 | -34.9 | 74.2 | -11.7 | 97.6 | i | 0.843
Nc1nonc1-c1nc2ccccc2n1Cc1ccc(Cl)cc1
  -1.9 | x | x | -1.6 | 96.6 | i | 0.87
COc1ccccc1NS(=O)(=O)c1cc(NC(=O)C2CCCC2)ccc1N1CCOCC1
  x | x | x | 1.6 | 89.5 | i | 0.87
Cn1nc(-c2ccc(Cl)cc2)nc2c(=O)n(C)c(=O)nc1-2
  4.4 | -5.4 | 136.5 | 3.0 | 99.1 | i | 0.58
C/C(=N/NC(=O)CNC(=O)c1ccccn1)c1ccc([N+](=O)[O-])cc1
  x | 0.0 | 73.6 | 0.9 | 102.2 | i | 1.05

Later entries:
Value order: GALR2 ag | INS promoter inh | INS promoter inh cell count | PKD1 inh | RGS16-Gao HTS | HSV replic up | HSV replic up primary fold
CCc1ccc(Oc2cc(Cl)nc(N)n2)cc1
  -1.4 | 45.5 | 69.5 | 1.4 | 108.3 | i | 1.1
COC(=O)c1sccc1NC(=O)CC1C(=O)NCCN1C(=O)c1ccc(C)c(C)c1 (centres undefined)
  x | x | x | x | 99.6 | i | 1.08
CSCCC(C(=O)NCc1cccs1)N1C(=O)c2ccccc2C1=O (centres undefined)
  -0.2 | -21.1 | 114.3 | -5.5 | 103.7 | i | 0.99
O=C(Nc1ccc(S(=O)(=O)N2CCOCC2)cc1)c1cc(-c2ccccc2O)n[nH]1
  x | x | x | x | 100.0 | i | 0.94
COc1ccc(C2(C(=O)Nc3ccc(S(N)(=O)=O)cc3)CCCC2)cc1
  x | x | x | 3.6 | 109.7 | i | 1.03
COc1ccc(/C=C/C2=CC(C)(C)NC(=S)N2)c(OC)c1
  x | x | x | -1.0 | 101.3 | i | 0.92
COc1ccc2c(c1)CCC/C2=N\NC(=O)c1ccoc1C
  0.0 | -10.3 | 126.0 | -2.2 | 117.2 | i | 0.88
Cc1cc(N2CCCC2=O)cc(C)c1S(=O)(=O)Nc1c(C)nn(C)c1C
  x | x | x | -6.6 | 103.4 | i | 1
COc1cccc(C(=O)N(C)c2nnc(-c3ccncc3)s2)c1
  -1.2 | -25.0 | 250.0 | -3.5 | 97.6 | x | x
